# Bst PK mod: Pyruvate Kinase | partly purified Bacillus stearothermophilus pyruvate kinase, luminescence ATP production; ribose 5-phosphate activator present at AC10 | Potency, µM | actives 1.2% (n = 51,000); in the data active means potency below about 11 µM; inconclusive means mostly about 12 µM to 25 µM; inactive means weaker than that;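 the screen sought inhibitors and activators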;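 note: potency is the fitted concentration of half-maximal effect; scaled between full activation by ribose 5 phosphate and full inhibition by luteolin; about four in five hits inhibit and the cells do not say which; series up to 57 µM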
# TsaE inh: qHTS Assay for Inhibitors of YjeE | purified YjeE, fluorescence polarisation of a bound ADP probe | actives 0.05% (n = 71,000) | AID 605, 2007 | Potency, µM | tRNA threonylcarbamoyladenosine biosynthesis protein TsaE (Escherichia coli (strain …; active = well fitted falling curve; inconclusive = weaker or top-dose-only fall, or a rising curve; inactive = flat or poorly fitted curve;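 note: top concentration of the series not given in the record; excess ADP was the control for the full effect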
#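 Purified YjeE (10 uM) with BODIPY Texas Red-labeled ADP probe (2 uM); compounds pin-transferred, 15 min at room temperature. Binding inhibition read as decreased fluorescence polarization; ADP titration as control.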
# * hit, by the source's call; i = inactive; ? = inconclusive; . = not tested or not shown. An excerpt; rates above refer to the full screens.
SMILES,Bst PK mod,TsaE inh
Cc1cc2c(c(=O)n1C1CC1)C(c1cccc(Cl)c1)C(C#N)=C(N)O2 (stereo not given),>57,i
COC(=O)c1c(N)c2ccccc2[nH]c1=O,.,i
COC(=O)c1sccc1NC(=O)c1cc(C)on1,>57,i
COc1ccc(OCCOC(=O)c2cccs2)cc1,>57,i
Cc1cc(C)n(-c2ccc(OCC(=O)O)nn2)n1,>57,i
O=c1[nH]c2ccc(Cl)cc2c(-c2ccccc2)c1CN1CCOCC1,i,i
Fc1ccc(CN2CCCCCCC2)c(F)c1,.,i
COC(=O)C1=C(NC(=O)c2cccc(C)c2)CCS1,>57,i
CCC(C)(NC(=O)c1ccccn1)C(=O)NC1CCCCC1 (stereo not given),>57,i
COc1ccc(N(CC(=O)Nc2ccc3c(c2)OCO3)S(C)(=O)=O)c(OC)c1,.,i
CCS(=O)(=O)c1ccc(O)c(NC(=O)Nc2ccccc2)c1,>57,i
O=C(Cn1cnc2c(nnn2Cc2ccc(Cl)cc2)c1=O)OCc1ccccc1,>57,i
O=C(O)c1ccc(CSc2ncn[nH]2)cc1,>57,i
c1ccc(SCCSc2ccccc2)cc1,.,i
C[C@@H](O)[C@H]1C(=O)N2C(C(=O)O)=C(S[C@@H]3CN[C@H](C(=O)N(C)C)C3)[C@H](C)[C@H]12,.,i
COC(=O)NC1CSCC1OC(=O)CN1C(=O)c2ccccc2C1=O (stereo not given),>57,i
COC(=O)Cn1c2c(c3cc(C)ccc31)CCCC2,>57,i
CC(C)OC(=O)c1cn(-c2ccccc2)nc1-c1ccco1,>57,i
O=C(O)C1C2C=CC(O2)C1C(=O)Nc1ccc(S(=O)(=O)N2CCc3ccccc32)cc1 (stereo not given),>57,i
CCOc1c(C(N)=O)c(-c2ccccc2)c2c(=O)[nH]c3ccccc3n12,>57,i
CCCOc1ccc(-c2nnc(N)s2)cc1,?,.
Cc1nnc(Nc2ccc(C(=O)NCCO)cc2)c2ccccc12,.,i
Cn1c(CSc2ccccc2)c(C#N)c2ccccc21,>57,i
CCN(CC)S(=O)(=O)c1cc(C(=O)Nc2ccc(Cl)cn2)ccc1C,.,i
COc1ccccc1OCC(=O)NCC1CCCCC1,>57,i

# (next part)
SMILES,Bst PK mod,TsaE inh
Cc1ccc2nc(NC(=O)CN(C)S(=O)(=O)c3cccc4nsnc34)sc2c1,>57,i
CCC(=O)c1cc2c(C)cc(=O)oc2c(C)c1O,>57,i
CSc1nc(O)c(C2OC(=O)c3ccccc32)c(=O)[nH]1 (stereo not given),>57,i
O=C(CC1SCCNC1=O)Nc1cc(Cl)cc(Cl)c1 (stereo not given),>57,i
COc1ccccc1-c1noc(CCC(=O)Nc2ccccc2Cl)n1,>57,i
O=S(=O)(Nc1ccc2c(c1)oc1ccccc12)N1CCCC1,>57,i
COc1ccc(CC(=O)Nc2ccc(-c3nnc(-c4ccccc4)o3)cc2)cc1OC,>57,i
COc1cc(-n2cnnn2)ccc1S(=O)(=O)N1CCOCC1,>57,i
CCOC(=O)c1[nH]cnc1C(=O)NC1CCCCC1,>57,i
FC(F)(F)c1ccccc1-c1ccc2ncnc(NCc3cccnc3)c2c1,.,i
c1ccc2c(c1)nc1n2C2(N3CCOCC3)CCCC2C1N1CCOCC1 (stereo not given),>57,i
C=CCn1c(SCC(N)=O)nnc1-c1cc(Br)ccc1O,>57,i
O=C(c1cccc(F)c1)N1CCC2(CC1)CN(c1ccncc1)C2,.,i
CCOC(=O)NC(Nc1ccc(S(N)(=O)=O)cc1)(C(=O)OCC)C(F)(F)F (stereo not given),>57,i
Cc1ccc(-c2nnc(CSc3nncn3N)o2)cc1,>57,i
COc1ccc(C2(C(=O)O)CCCC2)cc1,>57,i
CC1CN(C(=O)c2ccccc2)OC(c2ccc3c(c2)OCO3)O1 (stereo not given),>57,i
CC1CCc2nn(CC(=O)NCc3ccc(F)cc3)cc2C1 (stereo not given),.,i
CCOc1ccccc1N/C=C/C(=O)C(C)(C)C,>57,i
CCNC(=O)NC(=O)COC(=O)c1ccccc1SCC(=O)NC(=O)NCC,.,i
O=C(Nc1ccccc1Cl)c1ccc2c(c1)N(Cc1ccc(F)cc1)C(=O)CS2=O (stereo not given),.,i
COc1ccc(C(=O)N2CCC3(CC2)CN(c2ccccc2)C3)cc1,.,i
CCCOC(=O)Nc1ccccc1C(N)=O,.,i
COc1ccccc1C(=O)N1CCN(C(=O)COc2cccc(C)c2)CC1,>57,i
COc1cc2c(C#N)c(N3CCOCC3)nc(N)c2c(N)n1,.,i

# Record cards (already shown).
# CC(C)OC(=O)c1cn(-c2ccccc2)nc1-c1ccco1 is listed as Bst PK mod: >57; TsaE inh: i
# CCOc1ccccc1N/C=C/C(=O)C(C)(C)C is listed as Bst PK mod: >57; TsaE inh: i

# Other structures.
SMILES,Bst PK mod,TsaE inh
Cc1nnc(C)n1/N=C/C=C/c1ccccc1,>57,i
CCCS(=O)(=O)C(=C1NCCO1)S(=O)(=O)CCC,>57,i
CC(=O)NC1CC2CCC(C1)N2Cc1ccc(C)cc1 (stereo not given),>57,i
COc1ccc(Nc2nc(CC(C)=O)ns2)cc1OC,>57,i
CCOC(=O)N1CCC(N2Cc3cccc(C(=O)NCC4CCN(CC(C)C)C4)c3C2=O)CC1 (stereo not given),.,i
Cc1nc(C)c(-c2csc(Nc3cccnc3)n2)s1,.,i
c1ccc2c(c1)nc(N1CCOCC1)c1c3ccccc3[nH]c21,>57,i
Cn1c(=O)c2c(nc(Br)n2CCSc2ncccn2)n(C)c1=O,>25.6,.
O=c1cc(CN2CCN(c3ccccc3)CC2)c2cc(O)c(-c3ccccc3)cc2o1,>57,i
Cc1nc(Nc2ccc3c(c2)OCCO3)c2nnn(Cc3ccccc3Cl)c2n1,>57,i
Cc1ccc(OCC(=O)NCc2ccco2)cc1C,>57,i
CCN(CC)CCNc1nc2c(c(=O)[nH]c(=O)n2C)n1CC(O)COc1ccc(Cl)cc1Cl (stereo not given),>57,i
Cc1c(CN2CCC(C)CC2)c(=O)n(-c2ccccc2)n1C,.,i
O=C(O)c1ccccc1OCCOCCOc1ccccc1C(=O)O,>57,i
CCn1c(CNC(=O)c2cccs2)nnc1SCC(=O)NCCc1ccccc1,>57,i
CCC(=O)N1C(C(=O)N2CCCC2)CSC1c1ccc(OC)cc1 (stereo not given),.,i
COc1ccccc1C1/C(=C(/O)c2ccccc2)C(=O)C(=O)N1CC(C)C (stereo not given),>57,i
C1CN(c2nc3nonc3nc2N2CCOCC2)CCO1,>57,i
Cc1cc(NC(=O)CSc2nc(-c3ccccc3)cs2)no1,>57,i
CCOC(=O)C1CCN(C(=O)CSC2=NCCS2)CC1,>57,i
COc1ccc(OCC(=O)c2c(O)c3ccccc3oc2=O)cc1,>57,i
COc1ccc(-c2noc(CCC(=O)NC3CCCCC3)n2)cc1OC,>57,i
Cc1cccc(CN2CCC(CNC(=O)C3CCCN(S(=O)(=O)c4cnc[nH]4)C3)CC2)c1 (stereo not given),.,i
CCOc1cc2[nH]c(=S)n(CCOC)c(=O)c2cc1OCC,>57,i
CCN1CCCC1CNC(=O)CSCc1nc(-c2ccccc2C)oc1C (stereo not given),>57,i

# More results follow:
SMILES,Bst PK mod,TsaE inh
COc1ccc(-c2cc(C(=O)Nc3cc(OC)c(OC)c(OC)c3)no2)cc1OC,>57,i
CS(=O)(=O)N1CCC2(CCCN(c3ccncc3)C2)CC1,.,i
COc1ccc2c(Cl)c(-c3nnc(SCC(N)=O)n3C)sc2c1,.,i
Cc1ccc(S(=O)(=O)NC(CC(=O)O)c2ccco2)cc1 (stereo not given),>57,i
COc1ccc(S(=O)(=O)CCC(=O)N2CC(=O)N(CCc3ccccc3)C(=O)C2)cc1,>57,i
N#Cc1nc(-c2ccco2)oc1NCCN1CCOCC1,>57,i
COc1ccc(C(c2sc3ncnn3c2O)N2CC(C)OC(C)C2)cc1OC (stereo not given),.,i
COCCn1c(=O)c(-c2cc(F)cc(F)c2)nc2cnc(Nc3cccc(OC)c3)nc21,.,i
N=C(c1ccc2ccccc2c1)c1ccccc1Cc1ccccc1,.,i
Cc1ccc(C(=O)c2coc3ccc(O)c(CN4CCN(C)CC4)c23)cc1,>57,i
CCCn1c(-c2ccc(F)cc2)nc2c(NCCN3CCSCC3)nc(C)nc21,.,i
Nc1nonc1-c1nc2ccccc2[nH]1,.,i
Cc1cc(C)n(CC(=O)n2c3c(c4ccccc42)CCCC3)n1,>25.6,.
CCCS(=O)(=O)N1CCCC(C(=O)N2CCC(Cc3ccccc3)CC2)C1 (stereo not given),>57,i
CC1(C)[C@@H]2CC[C@@]1(CS(=O)(=O)Nc1ccccc1)C(=O)C2,.,i
COC(=O)c1ccc(C)cc1,.,i
CN(C)CCCn1c2c3ccccc3ccc2c2oc(=O)c3ccccc3c21,.,i
COc1ccc(NC(=O)c2cc3ccccn3n2)cc1,.,i
O=C(NO)C1CC2C=CC1C2 (stereo not given),>57,i
COC(=O)[C@H]1C[C@@H]1[C@H](NC(=O)c1cccnc1)c1ccccc1,.,i
Cc1ccc(N(C(=O)Cn2nnc(-c3ccc(C)o3)n2)C(C(=O)NC2CCCC2)c2ccco2)cc1 (stereo not given),>57,i
[N-]=[N+]=CC(=O)CNC(=O)[C@@H](Cc1ccccc1)N1C(=O)c2ccccc2C1=O,>57,i
COc1ccccc1CN1CCCC2(CCN(C(C)=O)CC2)C1,.,i
CC1=NC(C)Cc2ccccc21 (stereo not given),>57,i
CCOC(=O)c1c(C)n(C)c2ccc(OCC(O)CN3CCN(C)CC3)cc12 (stereo not given),.,i

# Additional records follow.
SMILES,Bst PK mod,TsaE inh
COCCOC(=O)C1=C(N)OC2=C(C(=O)CC(C)(C)C2)C1c1cccnc1 (stereo not given),>57,i
CCC(C)N(C(=O)c1csnn1)C(C(=O)NCc1ccc(F)cc1)c1ccco1 (stereo not given),>57,i
O=C(CSc1oc(-c2ccco2)nc1S(=O)(=O)c1ccc(Cl)cc1)NCC1CCCO1 (stereo not given),.,i
CCC(=O)N1CCN(C(C)=O)C1c1ccccc1 (stereo not given),>57,i
Cc1nc(NC(C)C)c2oc3ccccc3c2n1,>57,i
CCc1cccc2c(-c3ccccc3)c3c(nc12)OCC3,.,i
CCc1ccccc1NC(=O)c1cc(-c2cccc(O)c2)on1,.,i
Cc1ccc(C(=O)N(CC(=O)NC2CCCC2)Cc2cccs2)s1,>57,i
CCSc1nnc2c(n1)OC=Nc1ccc(Br)cc1-2,>57,i
CSc1ccccc1NC(=O)COc1ccc(S(=O)(=O)N2CCCC2)cc1,>57,i
Cc1cc(N2CCN(c3ccccn3)CC2)n2c(nc3ccccc32)c1C#N,>57,i
Cc1cc(Cl)c(S(=O)(=O)NCC2CCCO2)cc1OCC(N)=O (stereo not given),>57,i
COC(=O)Nc1ccc(OCc2ccccc2)cc1,.,i
CCC(=O)N1CCN(c2ccc(NC(=O)c3ccco3)cc2)CC1,>57,i
COC(=O)n1c(=O)oc2cc(S(=O)(=O)N3CCCCC3)ccc21,>57,i
CCN(CC)S(=O)(=O)c1ccc2[nH]cc(C(=O)NCCC3=CCCCC3)c(=O)c2c1,>57,i
CSc1nc(NC(C)=O)nc(C)c1Cl,>25.6,.
Cc1ccc2[nH]c(=O)c(-c3noc(C(C)C)n3)cc2c1,.,i
CC1(C)CC(=O)C2=C(C1)NC(SCC(=O)Nc1ccccc1)=C(C#N)C21CCCCC1,>57,i
O=S(=O)(NCCC1=CCCCC1)c1cccc2nsnc12,.,i
Cc1ccc(-c2csc3nc(C)n(-n4cccc4)c(=O)c23)o1,.,i
CC(C)C(=O)Nc1ccc(NC(=O)c2cccs2)cn1,.,i
CCN(CC)CCn1c(OC)cc(=O)[nH]c1=O,>57,i
O=c1c2cn[nH]c2nc(SCc2ccc3c(c2)OCCO3)n1-c1ccccc1,>57,i
Cc1ccc(C2C(C#N)=C(N)SC(N)=C2C#N)c(C)c1,>57,i
Cc1nnc(SCC(=O)Nc2cc(C(F)(F)F)ccc2N2CCOCC2)o1,>57,i
CCN(CC)C(=O)C1CCCN(C/C(C)=C/c2ccccc2)C1 (stereo not given),.,i
CCOc1cc(C)c(Cl)cc1S(=O)(=O)NCc1ccc2c(c1)OCO2,>57,i
Cc1nc2cc(NC(=O)N3CCN(c4ccccn4)CC3)ccc2o1,>57,i

# Grouped by structure: the entries above with an aryl thioether with sulfur outside any ring
SMILES,Bst PK mod,TsaE inh
O=C(O)c1ccc(CSc2ncn[nH]2)cc1,>57,i
c1ccc(SCCSc2ccccc2)cc1,.,i
Cn1c(CSc2ccccc2)c(C#N)c2ccccc21,>57,i
CSc1nc(O)c(C2OC(=O)c3ccccc32)c(=O)[nH]1 (stereo not given),>57,i
C=CCn1c(SCC(N)=O)nnc1-c1cc(Br)ccc1O,>57,i
Cc1ccc(-c2nnc(CSc3nncn3N)o2)cc1,>57,i
CCNC(=O)NC(=O)COC(=O)c1ccccc1SCC(=O)NC(=O)NCC,.,i
Cn1c(=O)c2c(nc(Br)n2CCSc2ncccn2)n(C)c1=O,>25.6,.
CCn1c(CNC(=O)c2cccs2)nnc1SCC(=O)NCCc1ccccc1,>57,i
Cc1cc(NC(=O)CSc2nc(-c3ccccc3)cs2)no1,>57,i
COc1ccc2c(Cl)c(-c3nnc(SCC(N)=O)n3C)sc2c1,.,i
O=C(CSc1oc(-c2ccco2)nc1S(=O)(=O)c1ccc(Cl)cc1)NCC1CCCO1 (stereo not given),.,i
CCSc1nnc2c(n1)OC=Nc1ccc(Br)cc1-2,>57,i
CSc1ccccc1NC(=O)COc1ccc(S(=O)(=O)N2CCCC2)cc1,>57,i
CSc1nc(NC(C)=O)nc(C)c1Cl,>25.6,.
O=c1c2cn[nH]c2nc(SCc2ccc3c(c2)OCCO3)n1-c1ccccc1,>57,i
Cc1nnc(SCC(=O)Nc2cc(C(F)(F)F)ccc2N2CCOCC2)o1,>57,i

# Screening data (PubChem)
